BJeLR lethal: BJeLR cell viability loss; BJeLR (HRASV12) viability, CellTiter-Glo ATP luminescence, 48 h; reference of the scale not given here; inhibition, % (test concentration not listed); actives 0.17% (n = 300,000);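 active means replicate mean above 50%; inconclusive means above 50% but judged a plate artefact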;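 further: 50 nL library stock added to about 25 µL; numbers are from one replicate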
RN4220 kill: S. aureus RN4220 growth inhibition; OD600, 16 h; inhibition, % (test concentration not listed); actives 0.33% (n = 330,000);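 active means z-score of -3 or lower and OD600 up to 0.18 on both plates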;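 further: plate controls were untreated cells for no effect and reference antibiotic for full effect; stock transfer was 100 nL into about 80 µL; one replicate is shown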
Mtb hypoxia inh: Mtb hypoxia fluorescent reporter inhibition | AID 1159583 | M. tuberculosis hypoxia-regulated fluorescent reporter, fluorescence | fluorescence inhibition, % (test concentration not listed) | actives 0.1% (n = 300,000);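 active means 35 to 45% if threefold the growth effect, above 45% if 1.5-fold the growth effect; inactive means the rest, general growth blockers included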;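 further: wells of about 50 µL received 100 nL stock; 0% = vehicle wells and 100% = reference inhibitor wells; whole bacteria with a GFP reporter of the hypoxia response; strong numbers were not always called active; many hits fall short of the cut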
PrP 5UTR inh: suppresses PrP 5' UTR mRNA reporter expression. cell-based PrP 5' UTR mRNA reporter, plate reader. inhibition, % (test concentration not listed). actives 0.35% (n = 340,000). AID 488862;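 active means every replicate at 50% or more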;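 further: 0 = median of the neutral control wells; tested in H4 reporter cells; numbers are from one replicate; inactives centre near -14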
Sa ugtP lethal: growth inhibition of S. aureus ugtP deletion strain; S. aureus RN4220 ugtP deletion, OD600 growth, 16 h; some inactives read as strong as hits; growth inhibition, % (concentration not given with the values); actives 0.54% (n = 330,000); AID 1259309;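 active means z-score under -3 and OD600 up to 0.15 on both plates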;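 further: plate controls were untreated wells for no effect and antibiotic for full effect; wells of about 80 µL received 100 nL stock; the first replicate is given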
Autofluor counter: counter-screen for toxin protease inhibitors: compound fluorescence; actives 3.1% (n = 360,000); AID 624483; compound autofluorescence counterscreen, microsphere flow cytometry; hits give high values; fluorescence intensity (test concentration not listed);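 active means at least 3 SD above the mean of all compounds, about 16000 in these data; inconclusive means too few beads counted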;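 further: 100 nL of 1 mM stock went into each well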
Mtb hypoxia inh growth: further read-out of Mtb hypoxia inh, marked with its call; growth inhibition, %; measured here: M. tuberculosis growth (absorbance);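 0% = vehicle and 100% = reference antibiotic; read after six days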
The depositor's hits bear a star; ? = inconclusive; . = not tested or not shown; & = joins results of further samples.

Preview:
SMILES	BJeLR lethal	RN4220 kill	Mtb hypoxia inh	Mtb hypoxia inh growth	PrP 5UTR inh	Sa ugtP lethal	Autofluor counter
O=S(=O)(Nc1cccc(CCc2ccccn2)c1)c1ccc2ccccc2c1	.	0.4	3	1	-13	17	4496
COCCNC(=O)c1onc(CSc2ccc(C(C)C)cc2)c1C(=O)O	-1	7.4	-3	5	2	2	3796

All compounds of this part, from the start:
SMILES	BJeLR lethal	RN4220 kill	Mtb hypoxia inh	Mtb hypoxia inh growth	PrP 5UTR inh	Sa ugtP lethal	Autofluor counter
O=S(=O)(Nc1cccc(CCc2ccccn2)c1)c1ccc2ccccc2c1	.	0.4	3	1	-13	17	4496
COCCNC(=O)c1onc(CSc2ccc(C(C)C)cc2)c1C(=O)O	-1	7.4	-3	5	2	2	3796
Cc1ccc(S(=O)(=O)c2nc(-c3ccccc3Cl)oc2N(C)C2CCN(C)CC2)cc1	.	1.3	2	7	-14	26	6424
Cc1ccc(S(=O)(=O)N2CCN(C(=O)Cc3ccccc3)CC2)cc1	-6	6.2	11	19	-8	-3	5732
CCCCn1c(N)c(N(CCOC)C(=O)C2CCN(S(=O)(=O)c3ccccc3)CC2)c(=O)[nH]c1=O	-1	-0.5	3	5	-16	4	?
CC(C)(C)OC(=O)N[C@@H](Cc1ccccc1)c1nnc(SCC(=O)O)o1	-5	1.9	24	20	-13	5	6783
CCCOc1ccc(CNC(=O)C2CCN(c3nnc(N4CCCC4=O)s3)CC2)cc1	-5	9.6	-1	-3	-8	1	6635
CC(C)(C)N=Cc1cc(-c2ccccc2)sc1O	-9	3.1	8	2	-62	14	9843
N#Cc1ccc(NCC(=O)Nc2ccc(S(=O)(=O)N3CCCCC3)cc2)cc1	.	3.6	3	10	-8	-3	3621
O=C1CCN(Cc2ccccc2)S(=O)(=O)c2c(F)cc(F)cc21	.	8.4	17	11	-4	-1	3631
OCC1(CCCc2ccccc2)CCN(C2CCC2)CC1	9	1.5	2	0	-18	4	3305
COCc1ccc(C(=O)NC2CC(C)(C)Cc3c2cnn3-c2ccc(OC)cc2)o1 (centres undefined)	-5	6.0	-2	-3	-7	15	6287
Cc1ccc(S(=O)(=O)CC(=O)Nc2nc3ccc(S(N)(=O)=O)cc3s2)cc1	-6	5.7	8	0	-11	2	5756
Cc1cccc(NC(=O)CN2C(=O)N/C(=C/c3ccc(-c4cccc(C(=O)O)c4C)o3)C2=O)c1	6	5.2	7	0	-9	2	3618
O=C(Cn1cc(C(F)(F)F)ccc1=O)NC(c1ccccc1)c1ccccc1	0	3.3	7	2	-12	13	2665
N#CC(=C(O)COC(=O)CCC1CCCCC1)c1nc2ccccc2[nH]1	.	4.2&-0.5	5	5	-17	-4&-5	4139
C=CCNC(=O)c1ccccc1NC(=O)c1ccccc1C	7	5.4	5	1	-8	12	3031
Cc1cccc(CSc2nnc(NC(=O)c3ccco3)s2)c1	0	-0.6	2	9	2	-12	24019*
O=c1cc(-c2cc3ccccc3o2)c2cc(O)ccc2o1	-14	-2.9	1	3	-8	-19	4917
CC(C)(C)c1ccc(C(CC(=O)O)NC(=O)CCCc2ccccc2)cc1 (centres undefined)	-10	-1.3	5	2	-21	-2	4933
Cc1cc(NC(=O)c2cc3nc(C4CC4)cc(C(F)(F)F)n3n2)no1	-2	2.7	7	14	-14	-1	2371
COc1ccccc1CN1CCNC(=O)C1CC(=O)NC1Cc2ccccc2C1 (centres undefined)	-9	2.7	-6	1	1	-1	2243
CC(C)OC(=O)CSc1n[nH]c(-c2cccnc2)n1	1	5.2	2	3	-10	3	4036
CC(C)Sc1nc2ccccc2c(=O)[nH]1	-7	6.2	14	1	-13	6	?
COc1ccc(NCC(=O)N/N=C/C(C)c2ccccc2)cc1 (centres undefined)	2	.	.	.	-29	.	4792
COc1cc(C)nc2nc(SCc3ccccc3)nn12	7	.	.	.	-43	.	4343
COc1cc(OC)c(OC)cc1CCC(C)NC(=O)Cc1ccccc1 (centres undefined)	0	2.7	-3	-2	-6	-3	3551
Cc1ccc(-n2nnnc2SCC(=O)c2c(N)n(C3CC3)c(=O)[nH]c2=O)cc1C	.	3.2	1	-2	-3	3	4369
CCOC(=O)N1CCC(NC(=O)c2ccc3c(Cl)c4c(nc3c2)CCCC4)CC1	.	-8.3	13	20	-32	-11	5596
Cc1ccc(CNC(=O)C(c2ccccc2)c2ccccc2)cc1	7	-1.1	18	8	-25	9	4137
COc1ccccc1CNC(=O)CCC(=O)Nc1nnc(C(C)C)s1	-3	1.1	6	-1	-27	1	6362
CC(=O)N1N=C(c2ccc(Cl)cc2)OC1c1ccc(C(C)C)cc1 (centres undefined)	-8	-2.6	-11	1	-22	-8	4003
CC(C)(C)OC(=O)N1CCC(Cc2cc(-c3cccc(Br)c3)no2)(C(=O)O)CC1	6	5.0	2	1	-11	-1	3786
O=C(Cn1cnc2ccccc21)NC(c1ccccc1)c1ccccc1	4	2.1	-1	-2	4	-1	8349
O=C(C/C=N\OCc1ccc([N+](=O)[O-])cc1)Nc1ccc(Br)cc1	-5	.	.	.	-16	.	4566
Cc1cc(C(=O)N/N=C/c2cccc(Cl)c2Cl)no1	0	.	.	.	-36	.	2379
CCc1ccc2nc(N3CCN(C)CC3)c(C#N)cc2c1	12	1.8	8	8	-12	5	9810
Cc1ccc(NC(=O)Cn2cc(S(=O)(=O)c3ccc(F)cc3)c(=O)c3cc(F)ccc32)cc1	1	2.8	.	.	5	4	4544
CCc1ccccc1NC(=O)c1ccc(NS(C)(=O)=O)cc1	-1	-2.0	-11	0	-17	-5	3277
CC(C)OP(=O)(OC(C)C)C1(NS(=O)(=O)c2ccc(Cl)cc2)C=C(Cl)C(=O)C(Cl)=C1	2	1.6	-3	7	-6	-2	.
O=C(CSc1nncc(=O)[nH]1)NCc1ccccc1	3	3.4	12	0	-22	3	4037
COc1ccccc1NC(=O)Cn1cnc2c(nc3n2CCCCC3)c1=O	4	1.6	3	-11	-4	3	6454
COC(=O)CCc1c(C)c(C(=O)c2cc(F)c(F)c(F)c2F)c2ccccn12	1	4.7	8	5	-6	6	4172
CC(C)OCC(O)Cn1c(N2CCCC2)nc2c1c(=O)[nH]c(=O)n2C (centres undefined)	-6	5.3	-1	-1	-17	5	10338
CSc1ccc(NC(=O)NCc2cccnc2)cc1	-2	1.9	7	-1	-19	13	3227

Profiles from above:
`CC(=O)N1N=C(c2ccc(Cl)cc2)OC1c1ccc(C(C)C)cc1` (centres undefined) in the list: BJeLR lethal = -8; RN4220 kill = -2.6; Mtb hypoxia inh = -11; Mtb hypoxia inh growth = 1; PrP 5UTR inh = -22; Sa ugtP lethal = -8; Autofluor counter = 4003
`Cc1ccc(NC(=O)Cn2cc(S(=O)(=O)c3ccc(F)cc3)c(=O)c3cc(F)ccc32)cc1` in the list: BJeLR lethal = 1; RN4220 kill = 2.8; Mtb hypoxia inh = .; Mtb hypoxia inh growth = .; PrP 5UTR inh = 5; Sa ugtP lethal = 4; Autofluor counter = 4544

(more compounds)
SMILES	BJeLR lethal	RN4220 kill	Mtb hypoxia inh	Mtb hypoxia inh growth	PrP 5UTR inh	Sa ugtP lethal	Autofluor counter
Cc1ccc(C(C)C)cc1NC(=O)Nc1ccc([N+](=O)[O-])cc1	10	.	.	.	-9	.	3408
Oc1ccc(N2CCN(Cc3c(-c4ccccc4)nc4ccccn34)CC2)cc1	-1	8.6	17	7	-6	7	5747
CC(=O)N1CCn2c3c(c4cc(C)ccc42)CCCC31 (centres undefined)	-4	3.2	-3	4	-3	-7	5569
CCOc1ccc(C(=O)NC(=S)Nc2ccccc2N2CCCCC2)cc1[N+](=O)[O-]	-7	-2.9	9	-11	5	5	2409
Cc1ccnc(SCc2cc(=O)c(OC(=O)c3ccc(S(=O)(=O)N(C)C)cc3)co2)n1	7	4.6	2	4	0	-1	2143
Cn1cc(CN2CCCCC2c2ccccn2)c(-c2ccc3c(c2)OCCO3)n1 (centres undefined)	-2	1.1	15	-8	-8	6	2068
Cc1cccc(-n2c(SCc3cc(=O)n4ccsc4n3)nc3ccccc3c2=O)c1	0	6.5	.	.	-19	3	2460
COc1ccc(-n2ncc(S(=O)(=O)c3ccccc3)c2-c2ccc(Cl)cc2)cc1	4	16	8	5	-17	13	10424
CCN(C(=O)c1coc(=O)c(Br)c1)c1ccc2c(c1)OCO2	-3	5.0	21	19	-38	4	10595
COCCCNC(=O)c1ccc(CN2CCc3ccccc3C2)cc1	-3	-1.5	-9	-5	-21	2	3941
CCNC(=S)N(Cc1c(C)noc1C)c1ccccc1	8	-2.8	-3	9	-11	3	2000
O=C1CCC(C(=O)OC(C(=O)c2c[nH]c3ccccc23)c2ccccc2)=NN1 (centres undefined)	-3	-3.4	-7	-6	-17	-1	2719
CC(=O)NC1CC2CCCC(C1)N2C(=O)Nc1ccc(Cl)c(C(F)(F)F)c1 (centres undefined)	0	0.5	-2	-2	-7	-1	3805
Cc1nc(Nc2ccc3c(c2)OCO3)c2oc3ccccc3c2n1	-1	6.0	2	-7	-47	-19	24138*
COC(=O)C1=C(c2ccc(S(C)(=O)=O)cc2)CC2CCC1N2C(=O)N1CCOCC1 (centres undefined)	.	5.6	6	7	.	-10	.
Cc1ccc(N2C(=O)NC(C(F)(F)F)(C(F)(F)F)C3=C2CC(C)(C)CC3=O)cc1	-16	.	.	.	-25	.	9038
COc1ccccc1N1CCN(S(=O)(=O)CCNC(=O)C2CC2)CC1	7	3.3	7	-3	-34	5	4086
Cc1cccc(NC(=O)/C(C#N)=C\c2cc(C)n(-c3ccc(C(=O)O)cc3)c2C)c1	13	4.1	16	12	-22	14	2536
Cc1csc(NC(=O)CCCSc2nc3ccccc3s2)n1	-10	6.3	2	-1	-30	-17	21652*
Cc1ccc2nnn(Cc3cccc(C(C)(C)C)c3O)c2c1	5	-3.8	1	12	-30	-5	4190
Cc1ccc(NC(=O)c2cccs2)cc1NC(=O)c1cccnc1	-10	-2.0	9	18	-28	6	7638
CCn1c(C(=O)N2CCc3ccccc3C2)cc2sccc21	-2	7.0	13	7	-23	13	4784
Cc1nc(NC(=O)CSc2nc3cccnc3n2C2CCCCC2)sc1C	5	-0.2	.	.	-7	0	2817
Cc1cc(CN2CCN(CCC#N)CC2)c(O)c(C2(C)CCCCC2)c1	2	16	.	.	-2	84*	3484
COc1cc(OC)cc(C(=O)Nc2ccc(N3CCOCC3)cc2N2CCOCC2)c1	.	1.5	-16	-6	14	2	5994
O=C1CCC(C(=O)Nc2ccc(OC(F)F)cc2)N1 (centres undefined)	2	3.3	11	13	-14	4	9357
Cc1c(Cl)cccc1NC(=S)N(Cc1cccnc1)Cc1ccccc1Cl	3	-4.5	-10	-2	-18	16	4453
COc1c(F)c(F)c(C(=O)O)c(Nc2cc(C)cc(C)c2)c1F	-4	3.1	3	4	-7	0	4550
CCN1C(=O)c2ccc(C(=O)NCc3ccccc3)cc2C1=O	9	-0.3	.	.	1	4	4376
Cc1ccc(Cl)cc1N1CCN(C(=O)COc2ccc(S(=O)(=O)NC(C)C)cc2)CC1	6	-12	-1	1	0	-14	6296
CC(C)(OC1OC(CO)C(O)C(O)C1O)C1Oc2ccc3ccc(=O)oc3c2C1O (centres undefined)	.	9.6	18	5	.	5	.
CN1CCN(c2nc3ccccc3o2)CC1	-4	6.0	5	9	-31	6	4726
CC1CCN(C(=O)CSc2nncn2C)CC1	1	3.4	3	3	-1	2	2880
Nn1c(COc2ccccc2F)nnc1SCC(=O)NC1CCCCC1	-4	3.4	8	13	-5	4	5085
CC(OC(=O)c1ccc(NC(N)=O)cc1)C(=O)Nc1ccc2c(c1)OCCO2 (centres undefined)	.	2.2	4	3	-22	13	3834
COCCCn1c(SCC(=O)NCc2ccccc2)nc2ccccc2c1=O	5	8.4	7	8	-11	0	10448
c1ccc(CN2CCN(c3ncccn3)CC2)cc1	4	2.6	17	9	-21	9	4368
CCCc1cc(C(=O)NC2CCCCC2)no1	-6	0.7	.	.	-60	0	6570
COc1ccc(C(C(=O)NC2CCCC2)N(C(=O)c2snc(-c3ccc(F)cc3)c2N)c2ccc(OC)cc2)cc1 (centres undefined)	4	0.5	1	6	-32	-4	21490*
Cc1ccc(S(=O)(=O)NCCC(=O)NCC(c2ccco2)N2CCCCC2)cc1C (centres undefined)	5	2.7	7	0	-37	1	5234
COc1ccccc1NC(=O)CSc1ccc(-c2ccccn2)nn1	-10	3.5	11	-4	-17	3	4496

Screening results: PubChem BioAssay, several laboratories
